Cruzain inh Det: inhibitors of Trypanosoma cruzi cruzain with detergent; P25779; purified cruzain, Z-FR-AMC fluorescence, 0.01% Triton; Potency, µM, for the others: max response, negative = inhibition, usual class: inhibitors; 200,000 compounds, 0.43% hits; AID 1478; active = well fitted curve in the direction sought with a large enough effect; inconclusive = small, poorly fitted or top-dose-only effect, or another doubt; inactive = no such curve, though single readings can be large; an effect the other way counts as inactive or inconclusive;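 also: plate controls were neutral wells for no effect and buffer without enzyme for full effect; nearly all actives have a fitted effect of over 40% in size; top concentration of the series not given in the record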
Target sequence (P25779 123-467 limits assumed): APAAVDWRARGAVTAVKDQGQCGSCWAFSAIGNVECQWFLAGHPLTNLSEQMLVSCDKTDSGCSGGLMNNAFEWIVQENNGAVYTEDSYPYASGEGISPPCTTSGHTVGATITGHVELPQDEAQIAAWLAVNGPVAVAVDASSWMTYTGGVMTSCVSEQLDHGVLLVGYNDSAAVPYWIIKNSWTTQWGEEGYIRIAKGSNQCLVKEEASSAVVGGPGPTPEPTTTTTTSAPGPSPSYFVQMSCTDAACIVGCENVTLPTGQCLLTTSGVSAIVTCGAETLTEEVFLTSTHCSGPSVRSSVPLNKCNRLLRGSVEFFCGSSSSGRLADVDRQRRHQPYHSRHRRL
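Detergent-containing arm of a paired screen for aggregation-based inhibition: 0.01% Triton X-100 present. Cruzain at 1.5 nM cleaved 2 uM Z-FR-AMC at pH 5.5 with 5 mM DTT; AMC fluorescence gain over 60 s measured activity.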
Marburg entry inh: Marburg virus entry inhibition. Marburg virus pseudotyped entry inhibition, cell reporter; control for the full effect not named in the record; about a third of the inactives were read at about 46 µM. 300,000 compounds, 1.8% hits. Potency, µM (series often up to 37.8 µM), without a hit: at the top dose activity change, negative = inhibition, actives largely listed as inhibitors. AID 540276; active = well fitted inhibition curve with a large enough effect; inconclusive = small, poorly fitted or top-dose-only effect, or effect the other way; inactive = flat fitted curve, though single readings scatter; tested in HEK293 cells; about a fifth of its hits are not listed in these tables; also: % is scaled to controls: 0 for no effect and ±100 for the full control effect; luciferase read-out
SARS PLP yeast: SARS-CoV PLP inhibition in yeast | AID 485353 | 330,000 compounds, 0.19% hits | Potency, µM (doses to about 32.9 µM), for inactives: at the top dose activity, positive = growth rescue | S. cerevisiae expressing SARS-CoV PLpro, growth rescue; control for the full effect not named in the record; also: 0% is about no effect; nearly all actives have a fitted effect of over 55% in size; growth read by luminescence after 48 h
Cruzain noTriton: inhibitors of Trypanosoma cruzi cruzain without detergent. Potency, µM, for the others: max response, negative = inhibition, actives largely listed as inhibitors. 200,000 compounds, 2.3% hits. purified cruzain, Z-FR-AMC fluorescence, no detergent. AID 1476. P25779; active = well fitted curve in the direction sought with a large enough effect; inconclusive = small, poorly fitted or top-dose-only effect, or another doubt; inactive = no such curve, though single readings can be large; an effect the other way counts as inactive or inconclusive;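 also: plate controls were enzyme without inhibitor for no effect and buffer without enzyme for full effect; nearly all actives have a fitted effect of over 40% in size; top concentration of the series not given in the record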
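Detergent-free condition (0.00005% Triton X-100) in acetate buffer pH 5.5 with DTT. 1.5 nM enzyme and compound were pre-mixed 15 min, then 2 uM Z-FR-AMC substrate added; reaction progress from fluorescence change between first and third reads (60 s).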
RE007 growth inh: less growth of the S. pombe RE007 Vpr strain | 360,000 compounds, 0.21% hits | Potency, µM (titrated, usually from 92.2 µM), for inactives: at the highest dose activity change, negative = less growth | S. pombe RE007 Vpr strain, BacTiter-Glo ATP luminescence, 24 h; control for the full effect not named in the record | AID 651644; active = well fitted falling curve with a large enough effect; inconclusive = small, poorly fitted or top-dose-only effect; inactive = no such curve, though single readings can be large or run the other way;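 also: % is scaled to controls: 0 for no effect and ±100 for the full control effect; nearly all actives have a fitted effect of over 50% in size; the assay follows cell death caused by Vpr and the record does not say whether a fall means rescue or toxicity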
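Fission yeast strain RE007, carrying one chromosomally integrated HIV-1 vpr copy, was seeded at OD 0.01 in PMG+AL medium with 23 nL pinned compound. After 24 h at 30 °C and 99% humidity, viability was read by BacTiter-Glo luminescence.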
NS1 inh: influenza NS1 inhibition. S. cerevisiae slowed by influenza A NS1, growth recovery by OD600. Potency, µM (series often up to 46.1 µM), inactives show top-dose activity, positive = more growth. 270,000 compounds, 0.4% hits; also: actives are rising curves; nearly all actives have a fitted effect of over 50% in size
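S. cerevisiae expressing influenza A NS1, grown in glucose, washed, then diluted 1:100 into pH 6.0 -URA galactose medium with 23 nl compound. Growth recovery read as OD600; NS1-free strain serves as control.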
2A StopGo: lowers the luciferase signal of an FMDV 2A StopGo reporter | human cells with a luciferase reporter of 2A StopGo recoding; control for the full effect not named in the record | Potency, µM (top dose mostly 57.9 µM), without a hit: at the top dose signal change, negative = less light | 410,000 compounds, 1.2% hits; active = well fitted falling curve with a large enough effect; inconclusive = small, poorly fitted or top-dose-only effect; inactive = no such curve, though single readings can be large or run the other way; tested in HEK293T cells; also: % is scaled to controls: 0 for no effect and ±100 for the full control effect; nearly all actives have a fitted effect of over 45% in size; luciferase light after 4 h
Lassa entry inh: Lassa virus entry inhibition; Lassa virus pseudotype entry inhibition, cell reporter; control for the full effect not named in the record; Potency, µM (top dose mostly 37.9 µM), without a hit: top-dose activity change, negative = inhibition, hits mostly inhibitors; 300,000 compounds, 1.2% hits; active means well fitted inhibition curve with a large enough effect; inconclusive means small, poorly fitted or top-dose-only effect, or effect the other way; inactive means flat fitted curve, though single readings scatter; tested in HEK293 cells; also: % is scaled to controls: 0 for no effect and ±100 for the full control effect; nearly all actives have a fitted effect of over 50% in size; luciferase read-out
* hit, by the source's call; u = inconclusive; x = no result given; & = joins results of further samples; [ ] = another dose, or the depositor's remark. Unless noted, calls follow the shape of the dose curve; as a rule, active means well fitted rising curve with a large enough effect; inconclusive means small, poorly fitted or top-dose-only effect; inactive means no such curve, though single readings can be large or run the other way. Potency is read from the fitted curve at half-maximal effect.

SMILES	Cruzain inh Det	Marburg entry inh	SARS PLP yeast	Cruzain noTriton	RE007 growth inh	NS1 inh	2A StopGo	Lassa entry inh
O=C(CSc1nccc(=O)[nH]1)Nc1ccc(N2CCOCC2)c(Cl)c1	x	u	0%	x	-15%	-2%	-1%	x
CCOC(=O)C1CCCN(c2c(Nc3cccc(C)c3)c(=O)c2=O)C1 (stereo not given)	-3.0%	x	-9%	-14%	8%	-1%	-3%	x
c1ccc(Sc2ncnc3c2oc2ccccc23)nc1	-2.9%	-1%	-6%	-4%	-19%	-53%	30%	27%
O=C(c1ccccc1)N1CCN(CC(O)Cn2ccc3ccccc32)CC1 (stereo not given)	x	-4%[46.1 µM]	-3%	x	7%	-1%	-24%	-22%[46.1 µM]
CSc1nc2ccc(C)cc2c(=O)n1-c1cccnc1	x	0%[46.1 µM]	3%	x	3%	-1%	-8%	-6%[46.1 µM]
CCOC(=O)c1sc2nc(NC(=O)C3CCCCC3)sc2c1C	0.8%	x	-1%	2%	-9%	1%	-3%	x
CCCc1nnc(SCC(=O)N2CCCCC2C)n1CCCOC (stereo not given)	1.0%	-3%	2%	-8%	-12%	5%	-19%	3%
COc1ccc(C(C(=O)NC2CCCC2)N(C(=O)c2snc(C(N)=O)c2N)c2cc(C)ccc2OC)cc1OC (stereo not given)	x	u	2%	x	-9%	8%	19%	u
C=C(C)COc1ccc(-c2nc(N)ncc2-c2ccccc2OC)c(O)c1	x	u	1%	x	-3%	5%	-7%	u
C/C(=N\OCC(=O)N/N=C/c1ccccc1O)c1cccs1	-4.7%	u	-12%	4%	u	-133%	14%	u
Cc1ccc(NC(=O)c2ccc(=O)n(CC(=O)Nc3c(C)cc(C)cc3C)n2)cc1	0.6%	x	2%	27%	-2%	12%	-6%&-5%	1%[46.1 µM]
Cc1cc(C)c2c(CC(=O)N3CCCC3)coc2c1	x	x	u	x	-15%	-12%	17%	x
COc1cc(/C=C/C(=O)OCC(=O)NCc2ccco2)cc(OC)c1OC	-4.0%	u	10%	2%	-3%	-4%	-16%	-22%
CCNC(=O)NC(=O)C(C)Sc1nc2ccccc2n1CC(C)C (stereo not given)	-1.4%	8%	-5%	-6%	11%	-9%	0%	-16%
CC1(C)Cc2nc3sc4c(=O)n(CC(=O)NCc5ccccc5)cnc4c3cc2CO1	3.8%	-16%	7%	5%	-5%	22%	31%[activator]	-16%
CC(=O)c1cccc(NC(=O)CSc2nc3ccccc3nc2Cc2ccc(F)cc2)c1	4.8%	x	x	7%	x	x	-11%	-1%[46.1 µM]
Cc1ccccc1NC(=O)c1ccc(NC(=O)C2CC(=O)OC23CCCCC3)cc1 (stereo not given)	x	19%[46.1 µM]	1%	x	-26%	-4%	-8%	-24%
Cc1cccc(NS(=O)(=O)c2ccccc2)n1	-1.6%	-4%	1%	14%	-18%	-1%	53%[activator]	2%
CC(=O)N1CCN(C(=O)CC2OC(=O)c3ccccc32)CC1 (stereo not given)	2.3%	18%	-45%	3%	45µM*	-8%	-9%	3%
CCOCCCNC(=S)NNC(=O)CCn1nc(C)c(Br)c1C	-2.4%	1%	-13%	-6%	10%	-3%	-26%	11%
COc1ccc(-c2nc(SCC(=O)NC(C)CCc3ccccc3)n[nH]2)cc1 (stereo not given)	-3.0%	x	x	-8%	x	x	u	u
CC(c1nnc(SCC(=O)c2c(N)n(C)c(=O)n(C)c2=O)n1-c1ccc(Cl)cc1)N(C)C (stereo not given)	0.3%	4%	4%	-3%	7%	-7%	x	7%
C/C(=N\NC(=O)NC1CCCCC1)c1ccc(Cl)s1	x	-4%	1%	x	4%	1%	18%	u
COc1cccc2sc(NNC(=O)C3COc4ccccc4O3)nc12 (stereo not given)	x	-8%[46.1 µM]	3%	x	-7%	x	-4%	x
O=C(Nc1nc2ccc(S(=O)(=O)N3CCCCC3)cc2s1)C1CCCO1 (stereo not given)	-0.7%	-7%[46.1 µM]	1%	-4%	-10%	-39%	10%	u

As entered above.
`CC(=O)N1CCN(C(=O)CC2OC(=O)c3ccccc32)CC1` (stereo not given) | Cruzain noTriton = 3%
`CC(c1nnc(SCC(=O)c2c(N)n(C)c(=O)n(C)c2=O)n1-c1ccc(Cl)cc1)N(C)C` (stereo not given) | NS1 inh = -7%

Limited to RE007 growth inh, Marburg entry inh and 2A StopGo (7 entries from above):
smiles	RE007 growth inh	Marburg entry inh	2A StopGo
Cc1ccccc1NC(=O)c1ccc(NC(=O)C2CC(=O)OC23CCCCC3)cc1 (stereo not given)	-26%	19%[46.1 µM]	-8%
CC1(C)Cc2nc3sc4c(=O)n(CC(=O)NCc5ccccc5)cnc4c3cc2CO1	-5%	-16%	31%[activator]
CC(=O)c1cccc(NC(=O)CSc2nc3ccccc3nc2Cc2ccc(F)cc2)c1	x	x	-11%
CC(=O)N1CCN(C(=O)CC2OC(=O)c3ccccc32)CC1 (stereo not given)	45µM*	18%	-9%
C/C(=N\OCC(=O)N/N=C/c1ccccc1O)c1cccs1	u	u	14%
COc1cc(/C=C/C(=O)OCC(=O)NCc2ccco2)cc(OC)c1OC	-3%	u	-16%
CCNC(=O)NC(=O)C(C)Sc1nc2ccccc2n1CC(C)C (stereo not given)	11%	8%	0%

(listing goes on)
SMILES	Cruzain inh Det	Marburg entry inh	SARS PLP yeast	Cruzain noTriton	RE007 growth inh	NS1 inh	2A StopGo	Lassa entry inh
Cc1c(Br)c([N+](=O)[O-])nn1CC(=O)N1CCc2ccccc21	x	-2%[46.1 µM]	0%	x	-7%	x	14%	-2%
O=C1[C@H]2[C@@H](/C=C/c3ccccc3)N3C(=O)CN(CCO)C(=O)[C@@]3(Cc3ccccc3)[C@H]2C(=O)N1c1ccccc1	x	x	2%	x	-12%	-10%	-8%	x
COc1ccc(/C(C)=N/N2C(=O)c3ccccc3NC2c2ccc(O)c(OC)c2)cc1 (stereo not given)	x	x	1%	x	-9%	1%	-28%	x
COC(=O)c1ccc(NC(=O)NC(C)c2c(-n3cccc3)sc(C)c2C)cc1 (stereo not given)	-8.5%	-16%[46.1 µM]	x	2%	x	x	13%	x
CN(c1ccccc1)S(=O)(=O)c1cccc(NC(=O)C2=NNC(=O)CC2)c1	x	-24%[46.1 µM]	-4%	x	5%	x	u	-11%[46.1 µM]
Cc1ccc(SC(c2ccccc2)C(Cn2cncn2)C(=O)c2ccccc2)cc1 (stereo not given)	3.2%	-4%	-5%	u	11%	1%	-9%	-2%
Cn1ncc(Cl)c1C(=O)Nc1cccnc1	3.6%	0%	-7%	4%	2%	6%	-5%	0%
Cc1cc(/C=C(\C#N)C(=O)O)c(C)n1CC1CCCO1 (stereo not given)	x	9%	4%	x	6%	x	60%[activator]	-6%
CC(C)CC(=O)Nc1ccc(C(=O)COC(=O)C2=COCCO2)cc1	x	2%	0%	x	-3%	x	7%	19%
O=C(c1ccc(F)cc1)C1CCN(C(=O)Nc2ccccc2Cl)CC1	x	0%[46.1 µM]	-3%	x	-17%	x	-28%	1%[46.1 µM]
CCc1ccc2oc(-c3cccc(NC(=O)COc4ccccc4Cl)c3)nc2c1	0.0%	u	x	-12%	x	x	43%[activator]	24%[46.1 µM]
Cc1nc2cc(C(F)(F)F)ccc2n1C1CCN(C(=O)N2CCOCC2)CC1	-4.6%	3%	2%	15%	-9%	0%	4%	3%
Cc1ccc(C(=O)Nc2ccc3cn[nH]c3c2)cc1S(=O)(=O)N1CCCCC1	-3.9%	u	-5%	-29%	12%	-7%	-13%	u
CCCCN(C(=O)CSc1cc(C)c2ccccc2n1)c1c(N)n(Cc2ccccc2)c(=O)[nH]c1=O	-2.1%	0%	-3%	-5%	8%	8%	-26%	u
O=S1(=O)CC2SC(=S)N(Cc3ccccc3)C2C1 (stereo not given)	x	7%[46.1 µM]	0%	x	-6%	6%	4%	0%
CCOC(=O)c1ccc(NC(=O)CN(C)S(=O)(=O)c2ccc(Br)s2)cc1	-6.8%	u	-49%	6%	5%	-2%	u	2%&-11%
Cc1nc2ccc(CCO)cc2s1	0.7%	u	2%	13%	-3%	4%	31%[activator]	0%
COc1ccc(CCNC(=O)C2c3ccccc3C(=O)N2Cc2ccccc2)cc1OC (stereo not given)	-0.1%	x	x	-2%	x	x	4%	-5%[46.1 µM]
O=C(NCCN1CCOCC1)[C@H](Cc1ccccc1)N1C(=O)c2ccccc2C1=O	-0.3%	-11%	0%	-7%	6%	-2%	6%	1%
CSc1ncnc2sc(C)c(C)c12	x	-16%	4%	x	2%	x	-12%	5%
COc1ccc(CCNC(=O)c2c(O)c3ccccc3[nH]c2=O)cc1	x	x	1%	x	-4%	6%	5%	x
Cc1cc(NC(=O)CSCC(=O)N(C)Cc2ccc(F)cc2)no1	x	-16%	-4%	x	3%	14%	-5%	6%
COc1cccc(OC)c1C(=O)Nc1cccc2c1CCCC2	x	x	-1%	x	-7%	-47%	-10%	x
CCc1ccc2oc(-c3cccc(NC(=O)c4cccnc4)c3)nc2c1	-6.0%	u	-16%	u	-12%	-49%	0%	u
Cc1ccc(C(=O)N/N=c2\sc3ccccc3n2C)cc1	-1.1%	9%	-8%	5%	1%	-7%	35%[activator]	3%
COc1cc(C(=O)Nc2nnc(C)s2)c([N+](=O)[O-])cc1OC	x	u	0%	x	6%	-2%	-14%	30%
COc1ccc(CCN(C(=O)c2ccccc2)C2=CC3CCC(C2)N3C)cc1OC (stereo not given)	5.4%	x	6%	2%	x	4%	x	x
CCOC(=O)c1c(C)oc2ncnc(Nc3ccc(CC)cc3)c12	-0.2%	20%[46.1 µM]	x	-2%	x	x	-2%	1%[46.1 µM]
Cc1cc(C)cc(NC(=O)C(=O)NCC(c2cccnc2)N2CCc3ccccc32)c1 (stereo not given)	0.9%	x	x	-8%	x	x	-28%	-1%[46.1 µM]
Cc1c(NC(=O)C(C)N(c2ccccc2)S(C)(=O)=O)c(=O)n(-c2ccccc2)n1C (stereo not given)	x	-13%[14.2 µM]	1%	x	1%	-1%	-3%	8%
